GALR2 agonist: agonists of human galanin receptor 2 (GALR2); O43603; GALR2-expressing cells, agonist activation read-out; activation, %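 (tested at 5 µM)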; 140,000 compounds, 0.48% hits;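 active = above mean plus 3 SD of all compounds, about 5% in these data, not always enough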;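 also: 0% = vehicle buffer wells and 100% = reference agonist at full effect; tested in CHO reporter cells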
Target sequence (O43603 whole entry, looked up): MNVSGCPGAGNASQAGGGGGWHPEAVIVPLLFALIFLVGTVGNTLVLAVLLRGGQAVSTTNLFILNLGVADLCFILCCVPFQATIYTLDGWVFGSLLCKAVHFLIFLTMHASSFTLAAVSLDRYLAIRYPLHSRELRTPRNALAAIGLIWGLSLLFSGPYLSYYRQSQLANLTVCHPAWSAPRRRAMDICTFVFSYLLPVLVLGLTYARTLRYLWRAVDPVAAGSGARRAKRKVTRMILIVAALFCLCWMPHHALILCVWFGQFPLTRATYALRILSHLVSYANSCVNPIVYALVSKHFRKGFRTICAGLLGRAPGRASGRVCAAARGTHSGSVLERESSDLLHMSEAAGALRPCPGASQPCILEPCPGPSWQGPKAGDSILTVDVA
HSV augment: HSV replication enhancement | HSV replication augmentation in cells, fold increase | maximum fold increase | 220,000 compounds, 0.005% hits | AID 1956;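 active = peak rise of 1.5-fold or more in the series; tested in PC3 cells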;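 also: first round at 10 µM; read as green reporter fluorescence; hits show the peak of a series up to 25 µM; 1 = signal of infected wells without compound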
PKD1 kinase inh: PKD1 (human) kinase inhibition. PKD1 kinase fluorescence polarization assay. inhibition, %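 (about 10 µM by stock and volumes)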. 200,000 compounds, 0.056% hits;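 active = inhibition of 50% or more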;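 also: controls were vehicle for no effect and a reference inhibitor for full effect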
INS promoter inh: TRM-6 insulin promoter activity inhibition. TRM-6 cells (human fetal islet line), insulin promoter-eGFP reporter, imaging; reporter expression induced with tamoxifen. inhibition, % at 2 µM. 130,000 compounds, 0.9% hits. AID 1273;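 active = inhibition above the mean plus 3 SD, with well images judged a real hit on visual review, cut at about 60% in these data, passing the limit was not always enough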
RGS16-Gao HTS: regulators of human RGS16-Galphao interaction. O15492+P09471. bead-based flow cytometry RGS16-Galphao binding, fluorescence; actives lie on both sides. binding response (% of control), % at 10 µM. 220,000 compounds, 0.38% hits. AID 1441;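 active = below 25% or above 175%, edge rows of some plates excepted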;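 also: Galphao activated by GDP with aluminum fluoride before binding; 100% = wells without compound and 0% = beads without RGS; some results beyond the cut were filed as inactive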
Target sequence (O15492 whole entry, looked up): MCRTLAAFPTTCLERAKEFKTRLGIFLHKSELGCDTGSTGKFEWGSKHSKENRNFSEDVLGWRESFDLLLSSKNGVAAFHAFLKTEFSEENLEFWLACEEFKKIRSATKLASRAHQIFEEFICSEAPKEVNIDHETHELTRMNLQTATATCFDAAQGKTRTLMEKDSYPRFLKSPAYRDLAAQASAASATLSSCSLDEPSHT
Target sequence (P09471 whole entry, looked up): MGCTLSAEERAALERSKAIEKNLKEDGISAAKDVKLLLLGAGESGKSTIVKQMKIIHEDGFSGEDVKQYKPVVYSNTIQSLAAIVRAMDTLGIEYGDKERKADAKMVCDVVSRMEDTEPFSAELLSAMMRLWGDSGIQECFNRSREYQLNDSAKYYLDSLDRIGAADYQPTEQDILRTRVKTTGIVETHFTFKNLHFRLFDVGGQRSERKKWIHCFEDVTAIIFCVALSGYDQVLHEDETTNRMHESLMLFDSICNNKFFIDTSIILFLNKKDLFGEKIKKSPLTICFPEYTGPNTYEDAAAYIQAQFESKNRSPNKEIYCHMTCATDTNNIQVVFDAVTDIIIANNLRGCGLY
INS promoter inh cell count: also measured in INS promoter inh; calls as there; normalized cell count, %; measured here: cell count, toxicity; reference of the scale not given here;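 cells exposed to compound for 48 h; stained nuclei by imaging scaled within each plate; lower means fewer cells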
HSV augment primary fold: recorded beside HSV augment, whose call it bears; fold increase; compound at 10 µM; measured here: primary screen fold increase 10 uM; tested in PC3 cells;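 GFP signal in the first replicate; 1 = infected wells without compound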
* hit, by the source's call; i = inactive; . = no result given.

SMILES | GALR2 agonist | HSV augment | HSV augment primary fold | PKD1 kinase inh | INS promoter inh | INS promoter inh cell count | RGS16-Gao HTS
O=C(O)/C=C/C(=O)Nc1ccc(-n2nccc2C(F)(F)F)cc1 | . | i | 1.1 | . | . | . | 100
COc1cccc(C(=O)NC(Cc2ccccc2)c2ccc3c(c2)OCCCO3)c1 (centres undefined) | -1.0 | i | 0.84 | -2 | -9 | 155 | 106
O=C(COC(=O)C1CC(O)CN1C(=O)Oc1ccccc1)c1ccc(Br)cc1 (centres undefined) | 0.6 | i | 0.91 | -9 | 0 | 171 | 98
COc1ccc(C2CC(c3ccccc3)=NN2C(=O)COC(=O)/C=C/c2ccc(O)c(OC)c2)cc1 (centres undefined) | . | i | 0.87 | . | . | . | 105
COC(=O)c1ccc(Oc2cc(C)nc(-n3nc(C)cc3C)n2)cc1 | 3.1 | i | 0.67 | 1 | . | . | 95
Cc1cc([N+](=O)[O-])nn1CC(=O)Nc1nc2ccccc2s1 | . | i | 0.93 | -4 | 47 | 105 | 111
COCCCNc1nc2c(c(=O)[nH]c(=O)n2C)n1CC(O)COc1ccccc1C (centres undefined) | -2.9 | i | 1.1 | -1 | . | . | 99
O=[N+]([O-])c1cccc(S(=O)(=O)N2CCC(c3nc(-c4ccncc4)no3)CC2)c1 | 0.0 | i | 0.96 | 6 | . | . | 102
CCOc1cc(-c2cn(S(=O)(=O)c3cccc4nsnc34)nc2N)cc(OCC)c1OCC | -2.6 | i | 0.92 | -4 | . | . | 142
Cc1occc1C(=O)N/N=C/c1cccnc1 | -0.8 | i | 0.87 | -6 | 11 | 173 | 102
Cc1cc(N2CCCC2)nc(N2C3CCC2CC(O)(c2ccc(F)cc2)C3)n1 (centres undefined) | . | i | 0.85 | 4 | -47 | 70 | 102
O=C1Nc2ccccc2C12OCC(COc1ccc(Cl)cc1)O2 (centres undefined) | -1.6 | i | 0.88 | -11 | 19 | 147 | 99
CCOC(=O)C1=C(CNC2CCCCC2)NC(=O)NC1c1cc(C)ccc1C (centres undefined) | -1.0 | i | 0.91 | -1 | -30 | 105 | 103
CSc1nc(/C=C2\C=Nc3ccccc32)c(O)n1C | -1.6 | i | 0.88 | -5 | 0 | 90 | 96
Cc1sc2nc(C)n(/N=C/c3ccc(O)cc3)c(=O)c2c1C | -1.7 | i | 0.87 | -8 | 50 | 84 | 250
CC(C)CNS(=O)(=O)c1ccc(CCC(=O)NCC2CCCO2)cc1 (centres undefined) | -0.5 | i | 1 | -2 | -24 | 119 | 100
CCSc1nnc(NC(=O)C2CC(=O)N(Cc3ccccc3)C2)s1 (centres undefined) | . | i | 1 | -6 | . | . | 106
COc1ccccc1NC(=O)C(=O)N(c1cccnc1)C(C(=O)NC(C)(C)C)c1ccccc1 (centres undefined) | . | i | 0.82 | 4 | . | . | 102
O=C(c1cccc(S(=O)(=O)N2CCCCC2)c1)N1CCN(S(=O)(=O)c2ccc(F)cc2)CC1 | -1.7 | . | . | -1 | -66 | 84 | 102
CC(=O)Nc1ccc(S(=O)(=O)NNC(=O)c2ccc(S(=O)(=O)N3CCCCC3)cc2)cc1 | -1.5 | i | 1 | -4 | -44 | 25 | 20*

One compound at a time, from the list above. Values in the order: GALR2 agonist | HSV augment | HSV augment primary fold | PKD1 kinase inh | INS promoter inh | INS promoter inh cell count | RGS16-Gao HTS
Results for CCOC(=O)C1=C(CNC2CCCCC2)NC(=O)NC1c1cc(C)ccc1C (centres undefined) : -1.0 | i | 0.91 | -1 | -30 | 105 | 103
Results for Cc1cc(N2CCCC2)nc(N2C3CCC2CC(O)(c2ccc(F)cc2)C3)n1 (centres undefined) : . | i | 0.85 | 4 | -47 | 70 | 102
Results for CCSc1nnc(NC(=O)C2CC(=O)N(Cc3ccccc3)C2)s1 (centres undefined) : . | i | 1 | -6 | . | . | 106
Results for COC(=O)c1ccc(Oc2cc(C)nc(-n3nc(C)cc3C)n2)cc1 : 3.1 | i | 0.67 | 1 | . | . | 95

Later entries:
SMILES | GALR2 agonist | HSV augment | HSV augment primary fold | PKD1 kinase inh | INS promoter inh | INS promoter inh cell count | RGS16-Gao HTS
CC(C)CC(=O)NCc1ccc2[nH]c3c(c2c1)CCCC3 | . | i | 0.93 | 0 | 33 | 86 | 109
CCOc1ccc(OCC)c(NC(=O)CN(C)S(=O)(=O)c2ccc3nc(C)sc3c2)c1 | -0.2 | i | 0.86 | -11 | -33 | 84 | 105
COc1ccc(CCNC(=O)c2ccco2)cc1 | -1.8 | i | 1 | -11 | . | . | 98
COc1cc(/C=N/Nc2cccc3cccnc23)cc(OC)c1O | . | i | 0.69 | -10 | 29 | 140 | 99
Cc1ccc(C)c(N(C(=O)Cn2nnc3ccccc32)C(C(=O)NCc2ccco2)c2ccncc2)c1 (centres undefined) | -0.7 | i | 0.84 | -2 | . | . | 96
O=C(CCCn1c(=S)[nH]c2ccccc2c1=O)NCCSCc1ccccc1 | . | i | 1 | 1 | 13 | 99 | 98
Cc1ccc2oc(=O)c3cnn(CC(=O)N(Cc4ccco4)C4CCCCC4)c3c2c1 | -0.2 | i | 0.92 | 4 | . | . | 102
O=C(c1ccccc1F)N1CCN(CC2CC3C=CC2C3)CC1 (centres undefined) | -0.1 | i | 0.95 | -7 | . | . | 141
COC(=O)c1scc(C)c1N/N=C(\C)c1ccc(F)cc1F | 0.4 | i | 1 | 5 | -20 | 91 | 108
CCCCS(=O)CC(COCc1ccccc1)OC(=O)CSc1nc(C)cc(C)n1 (centres undefined) | -2.4 | i | 0.99 | 8 | 0 | 105 | 94
CC(=O)CSc1ncnc2nc[nH]c12 | -3.0 | i | 0.99 | -5 | 14 | 66 | 96
CCN(CC)C(=O)C1CCCN(Cc2ccc(OC)c(C)c2)C1 (centres undefined) | -2.0 | i | 0.88 | -14 | 26 | 62 | 105
CCC1CCCCN1CCCNC(=O)C1CCC(=O)N1Cc1ccc(C)cc1 (centres undefined) | -0.8 | i | 0.96 | -9 | -23 | 73 | 101
COc1ccc(NC(=O)C(=O)N/N=C(\C)CC(=O)Nc2ccccn2)c(OC)c1 | . | i | 0.98 | . | . | . | 102
CCCNC(=O)CCc1c(C)nc2nc(C)nn2c1C | . | . | . | 2 | 46 | 103 | 93
Cc1nnc(-c2ccc(Cl)cc2)nc1NCCN(C)C | . | i | 0.9 | -6 | . | . | 101
Cn1cc(Br)c(NS(=O)(=O)c2ccc(Cl)s2)n1 | . | i | 0.96 | . | . | . | 65
Cc1cc(NC(=O)c2ccc(COc3ccc(Cl)c(C)c3)o2)no1 | -0.6 | i | 1.1 | -1 | -100 | 135 | 107
Cc1ccccc1-c1n[nH]c(=S)n1/N=C/C=C/c1ccco1 | . | i | 1 | . | . | . | 102
O=C(CCCCCN1C(=O)c2cccc3cccc(c23)C1=O)NCc1cccnc1 | . | i | 0.83 | . | . | . | 104

Four compounds from above, reduced to GALR2 agonist and RGS16-Gao HTS:
SMILES,GALR2 agonist,RGS16-Gao HTS
O=C(c1ccccc1F)N1CCN(CC2CC3C=CC2C3)CC1 (centres undefined),-0.1,141
COC(=O)c1scc(C)c1N/N=C(\C)c1ccc(F)cc1F,0.4,108
CCCCS(=O)CC(COCc1ccccc1)OC(=O)CSc1nc(C)cc(C)n1 (centres undefined),-2.4,94
CC(=O)CSc1ncnc2nc[nH]c12,-3.0,96

(cont.)
SMILES | GALR2 agonist | HSV augment | HSV augment primary fold | PKD1 kinase inh | INS promoter inh | INS promoter inh cell count | RGS16-Gao HTS
CCN(CC)S(=O)(=O)c1cc(NC(=O)CCCOc2ccc(C(C)=O)cc2)ccc1C | -0.4 | i | 1 | 5 | . | . | 96
COc1cc2nc(Cl)nc(N3CCOCC3)c2cc1OC | . | i | 0.88 | -2 | . | . | 105
CC1(C)CC(N(Cc2cccs2)C(=O)c2ccco2)CCO1 (centres undefined) | -2.2 | i | 0.95 | -12 | -6 | 144 | 101
Cc1cccc(C(=O)N/N=C/c2ccc3c(c2)OCO3)n1 | -3.2 | i | 0.89 | -11 | -68 | 94 | 101
CCCOc1ccc(N2CC(C(=O)Nc3ccc(N4CCOCC4)cc3)CC2=O)cc1 (centres undefined) | . | i | 0.69 | -2 | . | . | 85
CCOC(=O)c1ccc(N2C(=O)c3n[nH]c(C)c3C2c2ccc(O)cc2)cc1 (centres undefined) | -1.1 | i | 0.77 | 0 | 55 | 91 | 102
CCOc1ccccc1C(=O)N[C@H](C(=O)Nc1ccc(OC)c(S(=O)(=O)N2CCOCC2)c1)C(C)C | . | i | 0.96 | -3 | -83 | 58 | 109
CCn1c2ccccc2c2cc(NC(=O)CSc3nnc(-c4cccc(C)c4)o3)ccc21 | -1.3 | i | 0.82 | 0 | 1 | 133 | 87
CCc1cc2c(NCC3CCCO3)nc(C)nc2s1 (centres undefined) | -1.9 | i | 0.99 | -3 | -462 | 70 | 99
O=C(CN1CCCCCC1)N/N=C/c1cccc(Cl)c1Cl | -0.9 | i | 0.92 | -4 | -208 | 143 | 94
CC(C)(C)NC(=O)CN(C(=O)CS(=O)CC(=O)Nc1ccc(F)cc1)c1ccc2c(c1)OCCO2 (centres undefined) | . | i | 0.96 | -3 | 9 | 130 | 118
Cc1ccccc1CSCC(Nc1ccc(C(=O)O)cc1[N+](=O)[O-])C(=O)O (centres undefined) | -2.2 | i | 0.66 | 2 | 0 | 116 | 100
Cc1cc(C(=O)Nc2c(F)c(F)c(F)c(F)c2F)n(-c2ccccc2)n1 | . | i | 1 | -9 | -35 | 139 | 102
CCCn1c(SCC(=O)c2cc(C)ccc2C)n[nH]c1=O | -0.7 | i | 1 | 3 | -100 | 21 | 109
Cc1ccc(N2CN(Cc3ccco3)CNC2=S)cc1 | . | i | 0.99 | -12 | 43 | 76 | 102
CCC(C(=O)O/N=C(\N)c1ccccc1)c1ccccc1 (centres undefined) | 0.1 | i | 1 | -6 | -121 | 119 | 102
CN1CCN(CCc2nc3cc(NC(=O)c4ccco4)ccc3n2C)CC1 | . | i | 1.2 | . | . | . | 94
Cn1c(=O)c2c(SCc3cccnc3)nc(C3CC3)nc2n(C)c1=O | -1.4 | i | 0.84 | -5 | . | . | 85
CCOC(=O)C1CCCCN1Cc1ccc(OC)c(OC)c1OC (centres undefined) | -1.2 | i | 0.77 | -12 | -93 | 138 | 145
O=C(Nc1ccccc1C(=O)O)c1ccccc1 | -0.1 | i | 0.88 | -2 | -15 | 88 | 104
CCOC(=O)C1=C(N)n2c(s/c(=C\c3ccncc3)c2=O)=C(C(=O)OCC)C1c1ccncc1 (centres undefined) | . | i | 0.84 | -7 | 25 | 130 | 102
COc1ccc(OC)c(-c2csc(N(CC3CCCO3)C(=O)C3CCCCC3)n2)c1 (centres undefined) | . | i | 1.1 | -2 | . | . | 108
Fc1cccc(CCN2C(=S)NC[C@@H]2Cc2ccccc2)c1 | . | i | 0.7 | 7 | . | . | 93
CCCCNS(=O)(=O)c1ccc(S(=O)(=O)N2CCC3(CC2)OCCO3)cc1 | -1.0 | i | 0.94 | -3 | . | . | 109
Cc1ccc(OCC(=O)NCc2ccco2)c([N+](=O)[O-])n1 | . | i | 0.95 | -1 | . | . | 104
O=C(CN1CCc2ccccc2C1)Nc1cc(S(=O)(=O)N2CCOCC2)ccc1N1CCCC1 | 0.1 | i | 1 | 4 | -23 | 100 | 97
COc1cc(/C=C/C(=O)OCC(=O)N2CC3(C)CC2CC(C)(C)C3)ccc1O (centres undefined) | -2.3 | i | 0.78 | -3 | 23 | 54 | 107
Cn1cccc1Cc1nnc(SCC(=O)Nc2ccc(Cl)cc2)n1-c1ccc(F)cc1 | -0.4 | i | 1 | -8 | . | . | 101
CCOC(=O)C1=NOC2COC3(CCN(c4ncccn4)CC3)OCC12 (centres undefined) | . | i | 1 | 2 | 27 | 185 | 107
Cc1cccc(NCc2nc(-c3ccccc3)no2)c1 | -2.7 | i | 1 | 4 | . | . | 103

Filtered by structure: those above with bromine
SMILES | GALR2 agonist | HSV augment | HSV augment primary fold | PKD1 kinase inh | INS promoter inh | INS promoter inh cell count | RGS16-Gao HTS
O=C(COC(=O)C1CC(O)CN1C(=O)Oc1ccccc1)c1ccc(Br)cc1 (centres undefined) | 0.6 | i | 0.91 | -9 | 0 | 171 | 98
Cn1cc(Br)c(NS(=O)(=O)c2ccc(Cl)s2)n1 | . | i | 0.96 | . | . | . | 65

Screening results from PubChem BioAssay.
